SMN2 splice up: SMN2 splice variant enhancement | Potency, µM (series often up to 46.1 µM), for the others: at the top dose activity change, positive = activation, hits mostly activators | HEK293 SMN2-luciferase splicing reporter, luminescence, 30-36 h | 210,000 tested, 2.8% active; also: % of control where 0% means no effect; nearly all actives have a fitted effect of over 55% in size
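HEK293 cells carry an SMN2 minigene-luciferase reporter in which exon 7 inclusion puts luciferase in frame. Cells were seeded at 2000 cells/well, attached for 10-12 hours, then exposed to compounds for 30-36 hours at 37C before ONE-Glo luminescence.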
JMJD2E inh: blocks human JMJD2E demethylase activity; JMJD2E catalytic domain, FDH-coupled NADH fluorescence (FDH is formaldehyde dehydrogenase); B2RXH2; Potency, µM (doses to about 57.1 µM), without a hit: at the top dose activity change, negative = inhibition, hits mostly inhibitors; 230,000 tested, 1.6% active; active = well fitted inhibition curve with a large enough effect, not every such curve was filed as active; inconclusive = small, poorly fitted or top-dose-only effect, or another doubt; inactive = no such curve, though single readings can be large or run the other way;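 also: 0% = wells with enzyme and -100% = buffer wells without enzyme; nearly all actives have a fitted effect of over 50% in size; many of its hits are not listed in these tables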
Target sequence (B2RXH2 1-337 limits assumed): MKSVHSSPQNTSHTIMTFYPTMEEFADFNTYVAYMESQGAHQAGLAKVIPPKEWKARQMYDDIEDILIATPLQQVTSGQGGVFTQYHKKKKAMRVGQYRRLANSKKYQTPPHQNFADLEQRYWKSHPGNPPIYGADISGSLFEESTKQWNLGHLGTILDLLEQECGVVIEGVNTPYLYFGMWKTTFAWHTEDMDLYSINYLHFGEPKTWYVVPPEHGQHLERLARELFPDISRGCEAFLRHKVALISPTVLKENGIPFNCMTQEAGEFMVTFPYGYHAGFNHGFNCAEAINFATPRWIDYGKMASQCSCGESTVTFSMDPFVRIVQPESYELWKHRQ
GAA spleen mod: lysosomal alpha-glucosidase (human) modulation; human spleen homogenate, 4-MU-alpha-glucoside fluorescence; 240,000 tested, 0.006% active; Potency, µM (highest dose often 79.9 µM), inactives show top-dose activity change, negative = inhibition, usual class: inhibitors; P10253; AID 2112;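 also: 0% = enzyme with vehicle and -100% = no enzyme basal signal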
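Enzyme source: human spleen homogenate, 1 ug/well. Buffer 50 mM citric acid/K phosphate pH 5.0, 0.01% Tween-20. 4-MU-alpha-glucoside 1 mM; 37 C x 40 min; NaOH/glycine stop; fluorescence.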
GAA inhib: blocks human lysosomal alpha-glucosidase; P10253; purified human GAA, 4-MU-alpha-glucoside fluorescence; Potency, µM (series often up to 76.9 µM), for inactives: at the top dose activity change, negative = inhibition, usual class: inhibitors; 200,000 tested, 0.005% active; AID 1466;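 also: plate controls were uninhibited enzyme wells for no effect and no-enzyme background for full effect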
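Compounds are titrated up to 77 uM against 4 nM human enzyme. Substrate 4-methylumbelliferyl-alpha-D-pyranoside (400 uM) reacts 20 min at room temperature in pH 5.0 buffer; liberated 4-methylumbelliferone is read at 440 nm.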
ALDH1A1 block: ALDH1A1 (human) enzyme inhibition; P00352; Purified ALDH1A1, NADH fluorescence, propionaldehyde substrate; Potency, µM (top dose mostly 75.3 µM), for the others: top-dose activity, negative = inhibition, hits mostly inhibitors; 220,000 tested, 7.3% active; AID 1030; active = well fitted inhibition curve with a large enough effect, not every such curve was filed as active; inconclusive = small, poorly fitted or top-dose-only effect, or another doubt; inactive = no such curve, though single readings can be large or run the other way;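 also: plate controls were no enzyme wells and a reference inhibitor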
GAA glycogen mod: GAA glycogen-cleavage inhibition or activation; P10253; recombinant GAA, glycogen substrate, Amplex Red glucose oxidase fluorescence; Potency, µM (series often up to 76.4 µM), inactives show at the top dose activity change, negative = inhibition, hits mostly inhibitors; 300,000 tested, 0.38% active; AID 2100;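 also: 0% = full enzyme reaction and -100% = no-enzyme basal signal; the screen sought inhibitors and activators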
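Recombinant human alpha-glucosidase (4 nM final) hydrolysed bovine liver glycogen (30 ug) for 40 min at 37 C in pH 5.0 citrate/phosphate with 0.01% Tween-20. Released glucose detected by glucose oxidase/Amplex Red, Ex 573/Em 610 nm. Compounds up to 77 uM; AC50 from Hill fits.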
GLA spleen mod: alpha-galactosidase A (human) modulation; P06280; human spleen homogenate, 4MU-alpha-Gal fluorescence, 40 min; Potency, µM (titrated, usually from 80 µM), for inactives: top-dose activity change, negative = inhibition, actives largely listed as inhibitors; 240,000 tested, 0.008% active;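 also: 0% = enzyme with vehicle and -100% = no enzyme basal signal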
Target sequence (P06280 32-429 limits assumed): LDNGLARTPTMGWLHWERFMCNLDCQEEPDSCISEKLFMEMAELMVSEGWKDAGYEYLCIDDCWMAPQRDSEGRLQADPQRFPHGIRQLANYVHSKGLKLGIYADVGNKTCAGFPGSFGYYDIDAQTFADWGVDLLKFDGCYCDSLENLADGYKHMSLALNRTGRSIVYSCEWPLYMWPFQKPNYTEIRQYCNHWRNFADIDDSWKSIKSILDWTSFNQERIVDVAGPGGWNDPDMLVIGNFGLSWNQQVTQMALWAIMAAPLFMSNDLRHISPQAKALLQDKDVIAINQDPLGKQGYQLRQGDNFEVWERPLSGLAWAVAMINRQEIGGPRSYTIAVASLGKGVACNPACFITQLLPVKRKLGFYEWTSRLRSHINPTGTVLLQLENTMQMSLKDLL
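Human spleen homogenate (1 ug) as enzyme source, 4-methylumbelliferyl-alpha-D-galactopyranoside 1 mM final, citrate/phosphate pH 5.0 with 0.01% Tween-20. Compounds 40 min at 37C, NaOH/glycine stop; fluorescence Ex 365/Em 440, Hill-fit AC50.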
Starred values were filed as active, the others as inactive; u = inconclusive; x = not tested or not shown; & = joins results of further samples; [ ] = another dose, or the depositor's remark. Unless noted, calls follow the shape of the dose curve; as a rule, active = well fitted curve in the direction sought with a large enough effect; inconclusive = small, poorly fitted or top-dose-only effect, or another doubt; inactive = no such curve, though single readings can be large; an effect the other way counts as inactive or inconclusive. Potency is read from the fitted curve at half-maximal effect.

cpd | Structure | SMN2 splice up | JMJD2E inh | GAA spleen mod | GAA inhib
1 | CC1Cc2nc(SCC(=O)NCCc3ccccc3)n(C)c(=O)c2S1 (stereo unspecified) | -1.9% | -4.2% | -8.5% | u
2 | CC(=O)Nc1ccc(-c2nnc(SCC(=O)NCc3ccco3)n2C)cc1 | -16.0% | -0.4% | -15.7% | 5.4%
3 | COc1cc(CNC2CCCCCC2)cc(OC)c1O | 7.9% | -0.4% | 0.7% | -6.2%
4 | Cc1cccc(C)c1NC(=O)Cn1nc(-c2ccccc2)nc1-c1ccccc1 | -1.1% | -3.8% | 2.8% | 2.2%
5 | O=c1c2c3nc4ccccc4nc3n(/N=C/c3ccccn3)c2ncn1-c1ccccc1 | x | -8.5% | 5.3% | 5.0%
6 | COC(=O)[C@@]1(Cc2ccccc2)C=C[C@@H](C)N1C(C)=O | -6.4% | -18.5% | -10.2% | x
7 | CC1CCC2(CC1)NC(=O)N(Cc1nnc(-c3cccs3)o1)C2=O (stereo unspecified) | -7.2% | -2.9% | 8.0% | 0.9%
8 | Cc1ccc(-n2c(=O)cc(N3CCN(C(=O)c4ccco4)CC3)[nH]c2=O)cc1 | 23.6% | -5.1% | -2.2% | 1.7%
9 | CCOC(=O)c1ccc(NC(=O)CSc2n[nH]c(-c3ccncc3)n2)cc1 | -17.8% | -7.3% | 3.8% | u
10 | Cc1cc(N2CCN(c3cccc(C)c3C)CC2)nc(-c2ccccc2)n1 | -8.2% | -2.6% | -11.3% | u
11 | COc1ccc(NC(=O)C(c2cc3c(cc2[N+](=O)[O-])OCO3)N(C)C)cc1 (stereo unspecified) | 0.3% | -18.0% | -2.6% | 0.2%
12 | O=[N+]([O-])c1ccc(Cl)c(/C=N/n2c(COc3ccccc3)n[nH]c2=S)c1 | -7.9% | -8.6% | -14.0% | -2.2%
13 | COC(=O)Cn1cc(C#N)c2ccccc21 | -2.5% | -17.4% | -4.2% | 0.3%
14 | O=C(N[C@@H](Cc1ccccc1)C(=O)NC1CCCCCC1)c1ccco1 | -2.2% | -5.4% | 3.2% | -6.6%
15 | CC1CCCC(C)N1C(=O)CSc1nnc(C2CCCCC2)o1 (stereo unspecified) | -15.7% | 2.4% | -4.1% | 2.6%

cpd | ALDH1A1 block | GAA glycogen mod | GLA spleen mod
1 | -7.5% | -2.2% | 13.9%
2 | -8.7% | 1.2% | 2.4%
3 | -7.1% | -9.1% | 0.4%
4 | 2.0% | 3.1% | 2.9%
5 | 1.1% | -10.4% | -19.3%
6 | u | x | 5.5%
7 | -3.2% | 12.3% | 7.5%
8 | -4.2% | -6.7% | -0.1%
9 | -1.9% | 5.1% | 5.4%
10 | 0.2% | -2.6% | -13.7%
11 | u | -1.2% | -3.9%
12 | 14.1µM* | -4.4% | 1.4%
13 | 2.1% | 1.7% | -2.3%
14 | u | x | 8.4%
15 | 5.8% | 20.9% | 18.7%

Results in sequence from the entries so far.
Compounds 9 to 14 in ALDH1A1 block: -1.9%, 0.2%, u, 14.1µM*, 2.1%, u

Part of the list above in order of SMILES length, largest number first.
cpd | Structure | SMN2 splice up | JMJD2E inh | GAA spleen mod | GAA inhib
12 | O=[N+]([O-])c1ccc(Cl)c(/C=N/n2c(COc3ccccc3)n[nH]c2=S)c1 | -7.9% | -8.6% | -14.0% | -2.2%
11 | COc1ccc(NC(=O)C(c2cc3c(cc2[N+](=O)[O-])OCO3)N(C)C)cc1 (stereo unspecified) | 0.3% | -18.0% | -2.6% | 0.2%
5 | O=c1c2c3nc4ccccc4nc3n(/N=C/c3ccccn3)c2ncn1-c1ccccc1 | x | -8.5% | 5.3% | 5.0%
9 | CCOC(=O)c1ccc(NC(=O)CSc2n[nH]c(-c3ccncc3)n2)cc1 | -17.8% | -7.3% | 3.8% | u
4 | Cc1cccc(C)c1NC(=O)Cn1nc(-c2ccccc2)nc1-c1ccccc1 | -1.1% | -3.8% | 2.8% | 2.2%
14 | O=C(N[C@@H](Cc1ccccc1)C(=O)NC1CCCCCC1)c1ccco1 | -2.2% | -5.4% | 3.2% | -6.6%
2 | CC(=O)Nc1ccc(-c2nnc(SCC(=O)NCc3ccco3)n2C)cc1 | -16.0% | -0.4% | -15.7% | 5.4%
7 | CC1CCC2(CC1)NC(=O)N(Cc1nnc(-c3cccs3)o1)C2=O (stereo unspecified) | -7.2% | -2.9% | 8.0% | 0.9%
1 | CC1Cc2nc(SCC(=O)NCCc3ccccc3)n(C)c(=O)c2S1 (stereo unspecified) | -1.9% | -4.2% | -8.5% | u
15 | CC1CCCC(C)N1C(=O)CSc1nnc(C2CCCCC2)o1 (stereo unspecified) | -15.7% | 2.4% | -4.1% | 2.6%
3 | COc1cc(CNC2CCCCCC2)cc(OC)c1O | 7.9% | -0.4% | 0.7% | -6.2%
13 | COC(=O)Cn1cc(C#N)c2ccccc21 | -2.5% | -17.4% | -4.2% | 0.3%

cpd | ALDH1A1 block | GAA glycogen mod | GLA spleen mod
12 | 14.1µM* | -4.4% | 1.4%
11 | u | -1.2% | -3.9%
5 | 1.1% | -10.4% | -19.3%
9 | -1.9% | 5.1% | 5.4%
4 | 2.0% | 3.1% | 2.9%
14 | u | x | 8.4%
2 | -8.7% | 1.2% | 2.4%
7 | -3.2% | 12.3% | 7.5%
1 | -7.5% | -2.2% | 13.9%
15 | 5.8% | 20.9% | 18.7%
3 | -7.1% | -9.1% | 0.4%
13 | 2.1% | 1.7% | -2.3%

Remaining list, next part.
cpd | Structure | SMN2 splice up | JMJD2E inh | GAA spleen mod | GAA inhib
16 | CC(C)Cn1c(NCCN(C)C)nc2c1c(=O)[nH]c(=O)n2C | -9.3% | 9.2% | 1.6% | -8.0%
17 | Cc1ccccc1NC(=O)NC1(C(=O)N2CCCC2)CCCCC1 | x | 2.1% | -1.0% | -2.4%
18 | CC12CCC(=O)C=C1CCC1C2C(=O)CC2(C)C1CCC2(O)C(=O)CO (stereo unspecified) | x | x | x | x
19 | COc1ccc2[nH]c(=O)c(CN(C(=O)c3ccco3)C(C)C)cc2c1 | x | u | 4.9% | -4.6%[15.4 µM]
20 | C[C@@]12CCC(=O)C=C1CC[C@H]1[C@H]3CC[C@](O)(C(=O)CO)[C@]3(C)CC(=O)[C@@H]12 | -2.7%[20.6 µM] | 2.7%[25.5 µM] | 8.6%[29.1 µM] | x
21 | CC(=O)N1[C@H](C)C=C[C@]1(Cc1ccccc1)C(=O)NCc1ccccn1 | 9.1% | -9.2% | 1.8% | x
22 | Cc1ccc(C)c2nc3sc(C(=O)N4CCCc5ccccc54)c(N)c3cc12 | -5.0% | -2.0% | 9.4% | 5.4%
23 | C=CCn1c(COc2cccc(C)c2)nnc1SCC(=O)NC(=O)NCc1ccco1 | 2.9% | -2.2% | -5.0% | -8.9%
24 | CCCCn1nc(C(=O)Oc2ccc3c(C)cc(=O)oc3c2)c2ccccc2c1=O | u | u | u | u
25 | Cc1ccc2nc(N(CCN(C)C)C(=O)/C=C/c3cccs3)sc2c1 | -1.6% | u | -14.2% | -11.5%
26 | CCn1c(SCC(=O)Nc2cccc(F)c2)nnc1-c1cc2cc(Br)ccc2o1 | 12.5% | u | -0.6% | -10.4%
27 | CCNC(=O)NC(=O)COC(=O)CNC(=O)COc1ccccc1 | 19.1% | 11.9% | -1.3% | -2.2%
28 | O=C(O)[C@@H]1[C@@H]2C[C@@H]2CN1c1ncccc1[N+](=O)[O-] | 7.9% | -8.8% | -5.4% | -0.9%
29 | Cc1ccc(-c2cc(C(=O)NCc3cnn(C)c3C)c3cc(Br)ccc3n2)cc1 | 14.9%&3.9% | -14.0% | 1.2% | -8.6%

cpd | ALDH1A1 block | GAA glycogen mod | GLA spleen mod
16 | -6.4% | 3.7% | 0.4%
17 | 9.1% | 9.4% | -8.5%
18 | x | -3.0%[76.3 µM] | x
19 | x | 5.7% | -3.2%
20 | -0.3%[20.9 µM] | x | -2.6%[29.1 µM]
21 | -14.7% | x | 18.1%
22 | -7.5% | 3.8% | 7.6%
23 | u | 2.1% | -0.2%
24 | u | -7.6% | u
25 | 4.3% | 1.1% | 6.6%
26 | -7.5% | -0.4% | 2.8%
27 | 9.3% | 5.9% | 0.9%
28 | 9.7% | 21.0% | -6.3%
29 | 1.5% | 9.3%[76.3 µM] | 5.3%

Compound activity as filed in PubChem BioAssay.

A portion of the library. The share of hits here may be higher or lower than overall.
